Source: PubChem
Mtb H37Rv = Mycobacterium tuberculosis H37Rv growth inhibition, cell based, confirmatory dose response (AID 1949); 100,000 tested, 1.6% active; inhibition, % at 10 µg/mL, or IC50 in µg/mL where a hit was titrated; most inactive calls were filed without a number and no value below 0 was filed;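 active = confirmed in a dose series; inconclusive = about 50% or more but not retested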;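 note: bacteria grown 7 days with compound before Alamar blue readout; 0% = untreated bacteria and 100% = reference antibiotic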
The depositor's hits bear a star; i = inactive; ? = inconclusive.

SMILES | Mtb H37Rv
COc1ccccc1OCCCn1cc(C#N)c2ccccc21 | i
O=C(CN(c1ccccc1F)S(=O)(=O)c1ccccc1)NCCSCc1cccc(Cl)c1 | 4.6%
Cn1c(=O)c2c(nc(-n3ccnc3)n2Cc2ccccc2)n(C)c1=O | i
O=C(Cc1nc(-c2ccc(Br)cc2)cs1)Nc1ccccc1 | i
O=C(Nc1nncs1)c1cc(-c2ccc(Cl)c(Cl)c2)nc2ccccc12 | i
COc1ccc(CNC(=O)C2CCN(S(=O)(=O)c3cc(OC)ccc3OC)CC2)cc1 | i
COc1cc(CN2CCN(C(=O)c3cccnc3)CC2)cc(OC)c1O | i
CCOC(=O)c1cc(Cc2ccccc2)sc1NC(=S)n1cc(C)cn1 | i
CC(Nc1cc(N2CCN(C(=O)c3ccc(Cl)c(Cl)c3)CC2)ccc1[N+](=O)[O-])c1ccccc1 (stereo unspecified) | i
COc1ccc(S(=O)(=O)N(CC(=O)Nc2ccc(C(C)C)cc2)Cc2ccccc2)cc1 | i
Cc1c(Cc2ccccc2)sc(NC(=O)COc2ccccc2Cl)c1C(N)=O | 1.1%
COc1ccc(OCCCC(=O)NC2CCCC2)cc1 | i
O=C(OCc1ccc(Br)cc1)c1cnccn1 | 5.9%
CC(C)SCCCOc1ccc([N+](=O)[O-])cc1 | i
COc1ccc(CNC(=O)c2ccc(N(C)S(=O)(=O)c3ccc(OC)c(OC)c3)cc2)cc1 | i
COc1ccccc1/C=C/CN(CCCN(C)C)CCCN(C)C | 2.3%
CCc1ccccc1NS(=O)(=O)c1cc(Br)ccc1OC | i
O=C1C=C(NCc2ccc3c(c2)OCO3)CC(c2ccccc2)C1 (stereo unspecified) | 0.3%
COc1ccccc1-c1nn2c(-c3ccccc3Cl)nnc2s1 | i
COc1ccccc1C(=O)Nc1ccc2oc(-c3cccc(I)c3)nc2c1 | 3.0%
Cn1cnnc1SCc1ccccc1Cl | i
Cc1ccc2c(c1)C(=O)C(=O)N2CCOc1ccc(Cl)cc1Cl | 6.4%
Cc1sc(NC(=O)c2cccs2)c(C(N)=O)c1C | i
Cn1c(Cc2ccccc2)nnc1SCC(=O)Nc1ccc(Br)cc1C(F)(F)F | i
NS(=O)(=O)c1ccc(NC(=O)C2CCN(S(=O)(=O)c3ccc(Br)cc3)CC2)cc1 | i

Continued.
SMILES | Mtb H37Rv
O=C(NC(=S)Nc1ccc2oc(-c3ccc(F)cc3)nc2c1)c1ccc(Br)cc1 | 0.9%
COc1ccccc1-c1nc(-c2cc3ccccc3nc2OC)no1 | i
COc1ccc(Br)cc1C(=O)Nc1ccc(N2CCN(S(C)(=O)=O)CC2)cc1 | i
C=CCn1c(SCc2ccc(F)cc2)nnc1-c1ccccc1 | i
CCc1ccc(S(=O)(=O)Nc2cc(OC)ccc2OC)cc1 | 2.8%
CCS(=O)(=O)NCC(C)(C)CNS(=O)(=O)CC | 2.0%
Cc1ccc(C)c(NC(=O)c2sc3cccc(Cl)c3c2Cl)c1 | i
COc1cccc(/C=C2/C(=O)NC(=O)N(c3ccc(Cl)cc3)C2=O)c1 | i
O=C(NCc1cccs1)c1ccco1 | i
CCC(NC(=O)Nc1ccc(Cl)cc1)c1ccc(C)cc1 (stereo unspecified) | 1.8%
COc1c(C)cc(Br)cc1C(=O)Nc1cc([N+](=O)[O-])ccc1C | 3.8%
Cc1cc(C)nc(/N=C(\N)Nc2ccc(OCc3ccc(Cl)cc3)cc2)n1 | 34.4µg/mL*
CCOc1ccc2nc(SCC(=O)Nc3ccc(Br)cc3Cl)sc2c1 | 24.0%
CC(NC(=O)c1ccccc1)c1nnc(SCC(=O)c2ccc(Br)cc2)n1C (stereo unspecified) | i
CC(=O)c1cc(-c2nc3ccccc3n2C)n(C)c1 | i
CN1CCN(C(=O)c2ccc3c(c2)OCCO3)CC1 | i
COc1ccc(N2CCN(C(=O)c3ccc(N(C)S(=O)(=O)c4ccc(C)cc4)cc3)CC2)cc1 | i
CCOc1ccc(Nc2nc(N)c3ccccc3n2)cc1 | 5.8%
N#Cc1ccccc1COc1ccc(Br)cc1C=O | i
Cc1ccc(Cl)c(OCCCN(C)Cc2ccccc2)c1 | 0.1%
O=C(Nc1nc2ccc(Cl)cc2s1)c1cccc(F)c1 | 4.0%
CCN1CCN(C2CCN(S(=O)(=O)c3ccc(Cl)cc3)CC2)CC1 | i
CC(C)OCCCNC(=O)C(=O)NCc1ccc2c(c1)OCO2 | i
OC(CNC1CCCC1)COCCOc1ccc(Br)cc1 (stereo unspecified) | i
O=C(CN(CCc1ccccc1)S(=O)(=O)c1cc(Cl)ccc1Cl)Nc1ccccc1F | i

Additional compounds follow:
SMILES | Mtb H37Rv
Cc1sc2ncnc(Nc3ccc4c(c3)OCO4)c2c1C | i
COc1ccc(Cl)cc1NC(=O)c1ccccc1-c1ccccc1 | 32.8%
Cc1ccc(S(=O)(=O)N(CC(=O)NCc2ccccn2)c2cccc(Cl)c2C)cc1 | 0.1%
COc1ccc(CCNc2nc(-c3ccccn3)cs2)cc1OC | 0.72µg/mL*
OCCNCc1cc(Br)ccc1OCc1ccccc1 | i
CCN(CC)CCCN1C(=O)C(O)=C(C(=O)c2ccc(C)o2)C1c1cccc(OC)c1OC (stereo unspecified) | i
O=C(COc1ccc(Cl)cc1Cl)OCc1nnc(-c2ccccc2)o1 | i
N#CC1=C(SCc2ccc(Cl)cc2)NC(=O)CC1c1ccccc1F (stereo unspecified) | i
FC(F)(F)C(=C(NC(=S)n1cnc2ccccc21)C(F)(F)C(F)(F)F)C(F)(F)F | i
C/C(=N\N=C1\NC(=O)C(CC(=O)Nc2cccc(Cl)c2Cl)S1)c1ccco1 (stereo unspecified) | i
OCCN1CCN(C(=S)NCc2ccco2)CC1 | i
O=C(NCc1ccc(CNC(=O)c2ccncc2)cc1)c1ccncc1 | i
Cc1ccc(C(=O)Nc2cc(C(F)(F)F)ccc2N2CCOCC2)c(C)c1 | i
CCc1ccccc1NC(=O)CN(c1ccc(Br)c(C)c1)S(C)(=O)=O | i
CC(C)CNC(=O)C1CC(=O)N(c2ccc(OCc3ccc(Cl)cc3)cc2)C1 (stereo unspecified) | 1.0%
COc1ccc(Nc2nc3ccccc3c(=O)[nH]2)cc1 | i
COC(=O)C1=C(C)N=c2s/c(=C/c3ccc(OC)c(OC)c3)c(=O)n2C1c1cccs1 (stereo unspecified) | 10.5%
OCCNC(=S)NCCc1ccccc1 | i
COc1cc([N+](=O)[O-])ccc1NC(=O)c1ccc(C)o1 | i
Cc1ccc(Cl)cc1N(CC(=O)Nc1ccc(C(C)C)cc1)S(C)(=O)=O | 12.9%
CC(=O)N1CCN(c2nc(N3CCCCC3)nc(N3CCCCC3)n2)CC1 | 1.3%
C#CC(C)(C)NC(=O)CN(c1ccc(C)cc1)S(=O)(=O)c1ccc(OC)c(OC)c1 | i
COc1ccc(OC)c(NC(=O)CN(c2ccc(F)cc2)S(=O)(=O)c2ccc3c(c2)OCCO3)c1 | 1.1%
CCC(NS(=O)(=O)c1ccc(C)cc1)c1nc2ccccc2[nH]1 (stereo unspecified) | i
O=C(Nc1cccc(Cl)c1N1CCOCC1)c1ccc(F)cc1 | i

2 entries from above, tab-delimited.
SMILES	Mtb H37Rv
OCCNC(=S)NCCc1ccccc1	i
CCc1ccccc1NC(=O)CN(c1ccc(Br)c(C)c1)S(C)(=O)=O	i

(list continues)
SMILES | Mtb H37Rv
Cc1ccccc1CN1C(=O)C(O)(CC(=O)c2ccco2)c2ccccc21 (stereo unspecified) | 7.1%
COc1cc(/C=N/N2CCN(c3ccccn3)CC2)ccc1O | i
CS(=O)(=O)N(CC(=O)NCc1ccccn1)c1ccc(I)cc1 | i
O=C(c1cccc2ccccc12)N1CCN(Cc2cccc(Cl)c2)CC1 | i
O=C(CN1CCN(c2ccccc2)CC1)Nc1cc(C(F)(F)F)ccc1Cl | i
COC(=O)c1ccccc1NC(=O)Nc1ccc(OC)cc1OC | i
Cc1nc2c(sc3nc4c(cc32)COC(C)(C)C4)c(=O)n1CCN1CCOCC1 | i
C=CCn1c(=N)c(C(=O)NCCCOC)cc2c(=O)n3cccc(C)c3nc21 | i
Cc1ccc(NC(=O)COc2cccc(C=O)c2)cc1Cl | 5.9µg/mL*
O=C(C(Cc1ccccc1)N1C(=O)c2ccccc2C1=O)N1CCOCC1 (stereo unspecified) | i
O=C(Cn1cc(C(=O)C2CC2)c2ccccc21)Nc1ccccc1C(F)(F)F | i
NC(=O)c1c(NC(=O)c2ccc3c(c2)OCO3)sc2c1CCC2 | 0.7%
CCn1c(CNC(=O)c2ccc(Cl)cc2Cl)nnc1SCC(=O)Nc1nc(-c2ccccc2)c(C)s1 | 3.9%
CC(=O)c1cccc(OCc2ccc(Cl)cc2)c1 | i
CCOC(=O)c1ccc(NC(=O)CC2Nc3cccc4cccc(c34)NC2=O)cc1 (stereo unspecified) | ?
O=C(NC(=S)Nc1cccc2cccc(NC(=S)NC(=O)c3ccco3)c12)c1ccco1 | i
O=C(Nc1ccon1)c1ccc(S(=O)(=O)N2CCCC2)cc1 | 2.5%
CN(c1ccc(C(=O)Nc2ccc3c(c2)OCCO3)cc1)S(=O)(=O)c1ccccc1 | i
CCN(CC)C(=O)c1ccc(NC(=O)c2ccccc2C)cc1 | 3.1%
S=C(NCc1ccco1)N1CCN(Cc2ccc(Cl)cc2Cl)CC1 | 2.9%
COc1ccc(OC(=O)CN2C(=O)C3C4CCC(C4)C3C2=O)cc1 (stereo unspecified) | i
CCCCSc1ncnc2c1sc1nc(N3CCOCC3)c3c(c12)CCCC3 | i
Cc1ccc(-n2c3c(cc(C(=O)NCC4CCCO4)c2=O)C(=O)CC(C)(C)C3)cc1 (stereo unspecified) | 0.4%
CC(C)Cc1nc2ccccc2n1Cc1ccccc1Cl | 11.9%
O=C1N(c2ccccc2)C2CS(=O)(=O)CC2N1c1ccc(Br)cc1 (stereo unspecified) | i

Next records
SMILES | Mtb H37Rv
Cn1c(NC(=O)COc2ccccc2)cc(=O)n(C)c1=O | 0.6%
C=CCN1C(=O)C(O)(CC(=O)c2ccc(OC)cc2OC)c2cc(Br)ccc21 (stereo unspecified) | i
CCOC(=O)c1[nH]nc(C(=O)c2ccccc2)c1-c1ccccc1Cl | i
CC(=O)c1cc2c(cc1NC(=O)CSc1nc3ccccc3o1)OCO2 | i
CC(C)c1ccc(C2NC(=O)CCC2[N+](=O)[O-])cc1 (stereo unspecified) | i
Cc1cc(C(=O)Nc2sc3c(c2C(=O)NCc2ccco2)CCC3)no1 | i
Cc1nnc(SCc2c(C)cc(C(C)(C)C)cc2C)s1 | 10.9%
COc1ccc(Cl)cc1NC(=S)N1c2ccccc2CC1C (stereo unspecified) | i
COc1cc(CNCCN2CCOCC2)ccc1OCC(=O)NC(C)(C)C | i
CC(=O)c1cccc(NC(=S)NCCC2=CCCCC2)c1 | i
COc1ccc(CC(=O)NCc2nnc(SCC(=O)Nc3c(Cl)cc(Cl)cc3Cl)n2C)cc1 | i
O=C(CCc1ccc(S(=O)(=O)NCc2ccccc2)cc1)N1CCCCCC1 | i
COc1ccc(Cl)cc1NC(=O)CSCc1ccccc1Br | 5.8%
O=C1CN(c2ccccc2F)C(=O)CN1c1ccccc1F | i
CC(C)CCOc1ccc(C(=O)NCCC(=O)O)cc1 | i
O=C(Nc1ccc(Br)cc1)C1CC1 | 3.2%
Cc1c(NC(=O)CN2C(=O)c3ccccc3S2(=O)=O)cccc1[N+](=O)[O-] | i
O=C(CC12CC3CC(CC(C3)C1)C2)N1CCCCC1 | 2.3%
CCCNc1ncc2c(n1)CC(c1ccco1)CC2=O (stereo unspecified) | i
O=C(O)C(Cc1ccccc1)N1C(=O)c2ccccc2C1=O (stereo unspecified) | 5.0%
Cc1ccc(N2C(=O)/C(=C/c3ccc(I)o3)C(=O)NC2=S)c(C)c1 | i
COc1cc2c(cc1NC(=O)c1ccc(Br)o1)oc1ccccc12 | i
O=C(CCN1CCc2ccccc2C1)c1ccc2c(c1)OCCO2 | 14.9µg/mL*
Cc1cc(C)nc(NNC(=O)c2cccnc2)n1 | 1.6%
CC(C)(C)c1ccc(OCC(=O)Nc2cccnc2)c(Br)c1 | 25.5%

Taken from the entries so far for reference:
SMILES | Mtb H37Rv
COc1cc(CNCCN2CCOCC2)ccc1OCC(=O)NC(C)(C)C | i
CC(=O)c1cccc(NC(=S)NCCC2=CCCCC2)c1 | i
COc1ccc(CC(=O)NCc2nnc(SCC(=O)Nc3c(Cl)cc(Cl)cc3Cl)n2C)cc1 | i
O=C(CCc1ccc(S(=O)(=O)NCc2ccccc2)cc1)N1CCCCCC1 | i
COc1ccc(Cl)cc1NC(=O)CSCc1ccccc1Br | 5.8%
O=C1CN(c2ccccc2F)C(=O)CN1c1ccccc1F | i
CC(C)CCOc1ccc(C(=O)NCCC(=O)O)cc1 | i
O=C(Nc1ccc(Br)cc1)C1CC1 | 3.2%
Cc1c(NC(=O)CN2C(=O)c3ccccc3S2(=O)=O)cccc1[N+](=O)[O-] | i
O=C(CC12CC3CC(CC(C3)C1)C2)N1CCCCC1 | 2.3%
CCCNc1ncc2c(n1)CC(c1ccco1)CC2=O (stereo unspecified) | i
O=C(O)C(Cc1ccccc1)N1C(=O)c2ccccc2C1=O (stereo unspecified) | 5.0%
Cc1ccc(N2C(=O)/C(=C/c3ccc(I)o3)C(=O)NC2=S)c(C)c1 | i
COc1cc2c(cc1NC(=O)c1ccc(Br)o1)oc1ccccc12 | i
O=C(CCN1CCc2ccccc2C1)c1ccc2c(c1)OCCO2 | 14.9µg/mL*
Cc1cc(C)nc(NNC(=O)c2cccnc2)n1 | 1.6%
CC(C)(C)c1ccc(OCC(=O)Nc2cccnc2)c(Br)c1 | 25.5%

Further results follow:
SMILES | Mtb H37Rv
Cc1ccc(N(CC(N)=O)S(=O)(=O)c2ccc(Cl)cc2)cc1C | i
Cc1c(NC(=S)NC(=O)c2ccccc2Cl)cccc1-c1nc2ccccc2s1 | i
CCCCOc1cccc(C(=O)Nc2ccccc2OC(F)F)c1 | i
COc1ccc(C(C)(C)C)cc1NC(=O)Nc1ccc2c(c1)OCO2 | 1.8%
O=C(Nc1ccccc1NC(=O)NC1CCCCC1)NC1CCCCC1 | i
CCOC(=O)c1c(CN2CCCCC2)n(C)c2cc(Br)c(O)c(CN(C)C)c12 | i
CC(C)N(C(=O)c1ccc(Cl)cc1Cl)C(C)C | i
COC(=O)c1sc(N2C(=O)C(=O)/C(=C(/O)c3ccc(C)cc3)C2c2ccccc2F)nc1C (stereo unspecified) | i

An excerpt (hit frequency here may not be typical).
